High-throughput results: PubChem, National Center for Advancing Translational Sciences (NCATS)
SARS PLpro yeast = SARS-CoV PLP inhibition in yeast. 330,000 compounds, 0.19% hits. AID 485353. S. cerevisiae expressing SARS-CoV PLpro, growth rescue; control for the full effect not named in the record. Potency, µM (highest dose often 32.9 µM), for the others: top-dose activity, positive = growth rescue; active means well fitted rising curve with a large enough effect; inconclusive means small, poorly fitted or top-dose-only effect; inactive means no such curve, though single readings can be large or run the other way; further: 0% is about no effect; nearly all actives have a fitted effect of over 55% in size; growth read by luminescence after 48 h
2A StopGo = lowers the luciferase signal of an FMDV 2A StopGo reporter. human cells with a luciferase reporter of 2A StopGo recoding; control for the full effect not named in the record. 410,000 compounds, 1.2% hits. Potency, µM (series often up to 57.9 µM), for the others: at the top dose signal change, negative = less light; active = well fitted falling curve with a large enough effect; inconclusive = small, poorly fitted or top-dose-only effect; inactive = no such curve, though single readings can be large or run the other way; tested in HEK293T cells; further: on the % scale 0 is the no-effect control and ±100 the full control effect; nearly all actives have a fitted effect of over 45% in size; luciferase light after 4 h
NS1 function inh = inhibitors of influenza NS1 protein function. S. cerevisiae slowed by influenza A NS1, growth recovery by OD600. Potency, µM (highest dose often 46.1 µM), inactives show at the highest dose activity, positive = more growth. 270,000 compounds, 0.4% hits; active means well fitted rising curve with a large enough effect; inconclusive means small, poorly fitted or top-dose-only effect; inactive means no such curve, though single readings can be large or run the other way; further: nearly all actives have a fitted effect of over 50% in size
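A cell-based growth assay was used: compounds that relieve NS1-induced slow growth of budding yeast raise OD600. Assay medium was yeast nitrogen base with ammonium sulphate and -URA supplement, pH 6.0, with 2% galactose.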
Cruzain inh Det = cruzain (T. cruzi) inhibition with detergent; P25779; purified cruzain, Z-FR-AMC fluorescence, 0.01% Triton; Potency, µM, inactives show max response, negative = inhibition, most hits filed as inhibitors; 200,000 compounds, 0.43% hits; AID 1478;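 further: plate controls were neutral wells for no effect and buffer without enzyme for full effect; nearly all actives have a fitted effect of over 40% in size; top concentration of the series not given in the record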
Target sequence (P25779 123-467 limits assumed): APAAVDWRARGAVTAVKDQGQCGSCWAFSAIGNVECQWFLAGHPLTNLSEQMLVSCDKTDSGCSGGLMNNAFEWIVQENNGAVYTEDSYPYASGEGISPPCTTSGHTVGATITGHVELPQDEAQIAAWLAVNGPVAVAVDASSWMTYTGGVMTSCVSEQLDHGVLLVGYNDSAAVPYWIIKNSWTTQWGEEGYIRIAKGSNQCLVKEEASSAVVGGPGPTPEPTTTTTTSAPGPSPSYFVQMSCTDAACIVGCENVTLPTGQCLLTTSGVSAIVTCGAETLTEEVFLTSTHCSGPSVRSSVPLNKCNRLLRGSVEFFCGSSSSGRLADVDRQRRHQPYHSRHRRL
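Z-FR-AMC hydrolysis (2 uM substrate) by cruzain (1.5 nM) monitored kinetically at ex 360/em 450 nm after 15 min room-temperature compound exposure; 0.01% Triton X-100, pH 5.5, 5 mM DTT.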
RE007 growth inh = less growth of the S. pombe RE007 Vpr strain; S. pombe RE007 Vpr strain, BacTiter-Glo ATP luminescence, 24 h; control for the full effect not named in the record; Potency, µM (titrated, usually from 92.2 µM), for the others: at the highest dose activity change, negative = less growth; 360,000 compounds, 0.21% hits; active = well fitted falling curve with a large enough effect; inconclusive = small, poorly fitted or top-dose-only effect; inactive = no such curve, though single readings can be large or run the other way;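 further: on the % scale 0 is the no-effect control and ±100 the full control effect; nearly all actives have a fitted effect of over 50% in size; the assay follows cell death caused by Vpr and the record does not say whether a fall means rescue or toxicity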
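Fission yeast RE007 carrying one integrated HIV-1 vpr copy, seeded at OD 0.01 in PMG+AL medium with 23 nL pinned compound. Grown 24 h at 30 degrees; viability read by BacTiter-Glo luminescence after 5 min.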
Marburg entry inh = Marburg virus entry inhibition; Marburg virus pseudotyped entry inhibition, cell reporter; control for the full effect not named in the record; about a third of the inactives were read at about 46 µM; Potency, µM (doses to about 37.8 µM), without a hit: top-dose activity change, negative = inhibition, usual class: inhibitors; 300,000 compounds, 1.8% hits; AID 540276; active = well fitted inhibition curve with a large enough effect; inconclusive = small, poorly fitted or top-dose-only effect, or effect the other way; inactive = flat fitted curve, though single readings scatter; tested in HEK293 cells; about a fifth of its hits are not listed in these tables; further: on the % scale 0 is the no-effect control and ±100 the full control effect; luciferase read-out
LASV entry inh = blocks Lassa virus binding to or entry into cells; Lassa virus pseudotype entry inhibition, cell reporter; control for the full effect not named in the record; Potency, µM (series often up to 37.9 µM), inactives show at the highest dose activity change, negative = inhibition, actives largely listed as inhibitors; 300,000 compounds, 1.2% hits; active means well fitted inhibition curve with a large enough effect; inconclusive means small, poorly fitted or top-dose-only effect, or effect the other way; inactive means flat fitted curve, though single readings scatter; tested in HEK293 cells; further: on the % scale 0 is the no-effect control and ±100 the full control effect; nearly all actives have a fitted effect of over 50% in size; luciferase read-out
Cruzain noTriton = cruzain (T. cruzi) inhibition without detergent; purified cruzain, Z-FR-AMC fluorescence, no detergent; 200,000 compounds, 2.3% hits; Potency, µM, for the others: max response, negative = inhibition, usual class: inhibitors; AID 1476;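 further: plate controls were enzyme without inhibitor for no effect and buffer without enzyme for full effect; nearly all actives have a fitted effect of over 40% in size; top concentration of the series not given in the record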
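Detergent-free condition (0.00005% Triton X-100) in acetate buffer pH 5.5 with DTT. 1.5 nM enzyme and compound were pre-mixed 15 min, then 2 uM Z-FR-AMC substrate added; reaction progress from fluorescence change between first and third reads (60 s).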
Starred values were filed as active, the others as inactive; ? = inconclusive; . = no result given; & = joins results of further samples; [ ] = another dose, or the depositor's remark. Unless noted, the call rests on the fitted dose curve; in most records, active means well fitted curve in the direction sought with a large enough effect; inconclusive means small, poorly fitted or top-dose-only effect, or another doubt; inactive means no such curve, though single readings can be large; an effect the other way counts as inactive or inconclusive. Potency means the concentration at half of the fitted maximal effect.

SMILES	SARS PLpro yeast	2A StopGo	NS1 function inh	Cruzain inh Det	RE007 growth inh	Marburg entry inh	LASV entry inh	Cruzain noTriton
Cc1nn(Cc2ccc(Cl)cc2)c(Cl)c1/C=N/NC(=O)c1cccnc1	19%	-33%	-8%	-5.1%	12%	?	-6%	?
CC(C)Nc1ccc(-c2nc(-c3ccccn3)no2)cc1[N+](=O)[O-]	.	51%[activator]	.	-1.4%	.	-18%[46.1 µM]	11%[46.1 µM]	3%
CCC(=O)NC(c1cccc([N+](=O)[O-])c1)c1c(OC(C)=O)ccc2ccccc12 (stereo not given)	-22%	?	-9%	-7.2%	-4%	?	?	7%
Cc1cc(C)cc(-n2cc[nH]c2=S)c1	20%	10%	17%	-2.2%	8%	23%	6%	3%
CCOC(=O)CC1(CC(=O)OCC)NC(=O)c2c(C)sc(C(=O)OCC)c2N1	10%	-4%	1%	-0.8%	2%	-4%&-4%	-3%	2%
O=C(COC(=O)CCc1nc2ccccc2c(=O)[nH]1)Nc1ccc(N2CCOCC2)cc1	1%	-11%	2%	.	-17%	2%[46.1 µM]	8%	.
CCN(C(=S)NC(=O)C1CCCC1)C1CCCCC1	?	37%	.	.	-11%	?	-8%	.
COc1ccc(-c2nc(N)ncc2-c2ccccc2)c(O)c1	-1%	?	-6%	.	8%	.	.	.
CCCCNC(=O)c1nn2cc(Br)cnc2c1Br	-5%	25%	.	.	5%	12%[46.1 µM]	-1%	.
Cc1ccc(/C=N/N=C2/NC(=O)C(CC(=O)Nc3ccccc3)S2)o1 (stereo not given)	3%	-18%	.	.	10%	-19%	6%	.
Cc1nn(-c2ccccc2)c(C)c1/C=N/N1CCN(c2ccccc2)CC1	5%	?	8%	-0.4%	-3%	1%	-4%	-2%
Cn1nc(-c2ccc(OCC(N)=O)cc2)c2ccccc2c1=O	9%	12%	6%	0.2%	9%[3.69 µM]	?	10%	-24%
COCCN(CCNC(=O)c1ccc(NC2=NC3CS(=O)(=O)CC3S2)cc1)Cc1ccco1 (stereo not given)	-18%	-15%	5%	.	0%	.	.	.
CCN(CC)S(=O)(=O)c1ccc2oc(C(=O)NC3CC3)c(C)c2c1	-3%	15%	11%	.	3%	-13%[46.1 µM]	-4%[46.1 µM]	.
CCCCN1CCCc2cc(CN(CCCN3CCOCC3)C(=O)Nc3ccc(OCC)cc3)ccc21	.	?	.	-1.8%	.	.	?	2%
N#C/C(=C\c1ccc(F)cc1)c1nc(-c2ccco2)cs1	-1%	26%	0%	-12%	-20%	?	13%	0%
Fc1ccc(-c2ccc(Nc3cccc(F)c3)nn2)cc1	0%	26%	-1%	.	9%	?	6%[46.1 µM]	.
Cc1ccc2oc(C(=O)Nc3ccc(S(=O)(=O)Nc4onc(C)c4C)cc3)c(C)c2c1	?	-10%	-12%	.	2%	8%[46.1 µM]	9%[46.1 µM]	.
CCOC(=O)CSc1n[nH]c(NS(=O)(=O)c2ccccc2C(F)(F)F)n1	0%	9%	0%	.	12%	4%[46.1 µM]	-24%[46.1 µM]	.
COc1ccc(CNC(=O)C2CCN(S(=O)(=O)c3ccc(C)cc3)CC2)cc1	.	-12%	.	-0.6%	.	?	0%[46.1 µM]	5%
CCc1nn(CC(=O)Nc2cc(C)cc(C)c2)c(=O)c2cc3sccc3n12	.	-19%	.	-2.1%	.	-1%[46.1 µM]	.	-1%
COc1ccc(CNC(=O)COC(=O)c2ccc(F)c(S(=O)(=O)N3CCOCC3)c2)cc1	4%	-7%	.	.	6%	-3%	2%	.
COC(=O)CN(n1cnnc1)S(=O)(=O)c1ccccc1	8%	-9%	?	6.6%	-7%	-4%	-4%	10%
Cc1c(-c2ccccc2)sc(N)c1C(=O)N1CCOCC1	4%	-14%	-6%	-4.4%	-10%	1%	-19%	-3%
CCOC(=O)N1CCN(C(=O)CN2C(=O)NC(c3ccccc3)(c3ccccc3)C2=O)CC1	-2%	2%	-2%	.	3%	-22%[46.1 µM]	-2%[46.1 µM]	.
CCn1c(CC2C(=O)N(C)c3ccccc32)nc2ccccc2c1=O (stereo not given)	.	-6%	.	-1.0%	.	-13%[46.1 µM]	-23%[46.1 µM]	-2%
Cc1c(Cl)c(-c2n[nH]c(=S)n2CC(C)C)nn1C	10%	-9%	?	-1.7%	33%	-36%	5%	-1%
COc1cccc(/C=N/n2c(-c3n[nH]c4c3CCC4)n[nH]c2=S)c1OC	1%	-6%	-2%	.	5%	?	-8%	.
CC(=O)N1CCc2cc(Br)cc(S(=O)(=O)CCC(=O)NCCc3ccc(Cl)cc3)c21	.	1%	.	-2.9%	.	-5%[46.1 µM]	13%[46.1 µM]	14%
CC(=O)c1ccc(NC(=O)CN2C(=O)/C(=C/C(C)=C/c3ccccc3)SC2=S)cc1	7%	-7%	20%	-5.0%	.	?	8%	10µM*
COCCCNC(=O)c1sc2ncn(CC(=O)Nc3ccc(C)c(Cl)c3)c(=O)c2c1C	0%	-13%	.	.	-17%	-6%[46.1 µM]	-20%[46.1 µM]	.
COC(CNC(=O)c1ccc2c(c1)ncn2-c1ccc(F)cc1F)OC	2%	1%	.	.	11%	0%[46.1 µM]	5%[46.1 µM]	.
Cc1ccccc1C(=O)Nc1cccc(C#N)c1	22%	21%	-9%	-0.9%	-9%	9%	11%	-7%
Clc1ccc(SCCOCCN2CCCCC2)cc1	-38%	0%	16%	2.4%	1%	?	?	0%
Cc1ccc(N2CC(C(=O)N3CCCCC3)CC2=O)cc1C (stereo not given)	1%	5%	5%	.	11%	.	.	.
COC(=O)c1ccccc1NC(=O)C1CC(=O)N(C2CCCCC2)C1 (stereo not given)	-12%	?	-22%	5.2%	3%	3%	-6%	9%
O=C1CC(c2ccncc2)c2cc3c(cc2N1)OCCO3 (stereo not given)	3%	-9%	-2%	1.1%	0%	.	6%	9%
Cc1sc2ncn(CC(=O)NCC(=O)N3CCC4(CC3)OCCO4)c(=O)c2c1C	1%	-17%	-3%	1.5%	4%	?	8%	-7%
NC(N)=NS(=O)(=O)c1ccc(N/C=C\C(=O)c2ccncc2)cc1	1%	0%	0%	.	33%	4%	5%	.
CCCCn1c(N)c(N(CC(C)C)C(=O)c2ccc(S(=O)(=O)N3CCCCCC3)cc2)c(=O)[nH]c1=O	-1%	-16%	.	.	-20%	-1%	13%	.
COc1ccc(OCCn2nnc3sc4c(c3c2=O)CCCC4)cc1	.	-24%	.	-9.5%	.	12%[46.1 µM]	3%[46.1 µM]	1%
CN(C)C1(CN=Cc2cc(Cl)cc([N+](=O)[O-])c2O)CCCCC1	-18%	2%	-44%	.	-23%	-18%[46.1 µM]	3%[46.1 µM]	.
Cc1cc(NC(=O)CN2CC(C)OC(C)C2)n(-c2nc3ccccc3s2)n1 (stereo not given)	4%	-19%	-10%	-3.7%	0%	18%	-9%	?
COc1ccc(CCNC(=O)c2ccc(NC(=O)CC3SC(N4CCCC4)=NC3=O)cc2)cc1 (stereo not given)	2%	-2%	.	.	-12%	-4%	-3%[46.1 µM]	.
CCCCn1c(N)c(N(CC(C)C)C(=O)C2CCN(S(=O)(=O)c3ccc(C)cc3C)CC2)c(=O)[nH]c1=O	1%	-16%	.	.	-21%	?	29%[46.1 µM]	.
CC(C(=O)NCc1ccccc1Cl)N1C(=O)c2ccccc2C1=O (stereo not given)	0%	9%	2%	.	48%	0%[46.1 µM]	19%[46.1 µM]	.
COc1ccccc1Oc1ccc(S(=O)(=O)N2CCCCC2C)cc1 (stereo not given)	-6%	-11%	-18%	.	5%	-10%[46.1 µM]	?	.
COc1ccc(S(=O)(=O)N2CCCC(C(=O)NCc3ccccc3)C2)cc1 (stereo not given)	4%	4%	6%	.	0%	-25%[46.1 µM]	?	.
COc1ccc(-c2csc(Cc3nc(O)cs3)n2)cc1	-14%	7%	.	.	-1%	?	4%	.
COc1cccc(-c2nc(Oc3cccc(C)c3C)c3ccccc3n2)c1O	14%	1%	2%	-0.2%	-8%	-17%	6%	-4%
CCOc1cccc2sc(N(CCN(CC)CC)C(=O)c3cccc(N4C(=O)CCC4=O)c3)nc12	1%	-8%	.	.	-13%	?	-15%	.
O=C(CCCN1C(=O)c2ccccc2C1=O)Nc1cccc(S(=O)(=O)NC2=NCCC2)c1	-2%	21%	4%	.	-13%	9%[46.1 µM]	9%	.
O=C(CNC(=O)c1ccco1)Nc1ccc(S(=O)(=O)N2CCCC2)cc1	8%	-1%	10%	0.4%	9%	-17%	1%	-2%
COc1ccc(Cl)cc1NS(=O)(=O)c1c(C)nc2sccn2c1=O	-1%	16%	-18%	.	-18%	.	.	.
O=C(NCc1ccncc1)c1nc(-c2ccc(C(F)(F)F)cc2)no1	-1%	?	0%	.	2%	10%[46.1 µM]	-8%	.
O=c1cc(-c2ccccc2)nc(N2CCN(Cc3ccc4c(c3)OCO4)CC2)[nH]1	3%	-22%	-26%	3.1%	-4%	-4%	?	-19%
Cc1ccccc1NS(=O)(=O)c1ccc(OCC(=O)NCc2ccccn2)cc1	2%	15%	-7%	.	2%	8%	-12%	.
NC(=O)C1CCN(CC(=O)NC(=O)NC2CCCC2)CC1	-1%	-12%	.	.	-12%	3%[46.1 µM]	-16%[46.1 µM]	.
CN(C)C(CNC(=O)CCc1nc2cc(Cl)ccc2n(Cc2ccccc2)c1=O)c1ccccc1 (stereo not given)	2%	-16%	.	.	-4%	?	?	.
CC(=O)Nc1ccc(Oc2cncc(Cl)c2)nc1	-1%	0%	0%	.	1%	?	21%[46.1 µM]	.
CCN(CC)CCCNC(=O)c1cn(CC)c2ccc(S(=O)(=O)N3CCc4ccccc4C3)cc2c1=O	-3%	-22%&-21%	.	-0.3%	-9%	?	4%[46.1 µM]	6%
CC(=O)c1ccc(NC(=O)CSc2nc3[nH]ncc3c(=O)[nH]2)cc1	1%	-4%	.	.	9%	19%	10%	.
COc1cc(/C=N\NC(=O)C2COc3ccccc3O2)cc(OC)c1O (stereo not given)	-1%	-1%	-12%	.	8%	?	-23%[46.1 µM]	.
